NS1 inh = blocks influenza NS1 protein function | actives 0.4% (n = 270,000) | AID 2326 | S. cerevisiae slowed by influenza A NS1, growth recovery by OD600 | Potency, µM (top dose mostly 46.1 µM), for inactives: top-dose activity, positive = more growth; note: actives are rising curves; nearly all actives have a fitted effect of over 50% in size
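A cell-based growth assay was used: compounds that relieve NS1-induced slow growth of budding yeast raise OD600. Assay medium was yeast nitrogen base with ammonium sulphate and -URA supplement, pH 6.0, with 2% galactose.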
Cruzain inh noDet = blocks cruzain activity in detergent-free assay. purified cruzain, Z-FR-AMC fluorescence, no detergent. AID 1476. Potency, µM, inactives show max response, negative = inhibition, usual class: inhibitors. actives 2.3% (n = 200,000); active = well fitted curve in the direction sought with a large enough effect; inconclusive = small, poorly fitted or top-dose-only effect, or another doubt; inactive = no such curve, though single readings can be large; an effect the other way counts as inactive or inconclusive;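 note: plate controls were enzyme without inhibitor for no effect and buffer without enzyme for full effect; nearly all actives have a fitted effect of over 40% in size; top concentration of the series not given in the record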
Target sequence (P25779 123-467 limits assumed): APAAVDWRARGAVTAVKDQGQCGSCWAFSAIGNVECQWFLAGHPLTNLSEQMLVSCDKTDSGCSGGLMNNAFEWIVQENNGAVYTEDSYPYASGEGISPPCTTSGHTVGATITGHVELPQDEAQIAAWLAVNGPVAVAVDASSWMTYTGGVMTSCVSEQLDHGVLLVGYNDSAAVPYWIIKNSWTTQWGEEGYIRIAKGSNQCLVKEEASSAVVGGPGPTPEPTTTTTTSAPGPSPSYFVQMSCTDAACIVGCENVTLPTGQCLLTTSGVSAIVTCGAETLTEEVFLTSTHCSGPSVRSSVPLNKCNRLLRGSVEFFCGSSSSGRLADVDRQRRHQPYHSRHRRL
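Detergent-free condition (0.00005% Triton X-100) in acetate buffer pH 5.5 with DTT. 1.5 nM enzyme and compound were pre-mixed 15 min, then 2 uM Z-FR-AMC substrate added; reaction progress from fluorescence change between first and third reads (60 s).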
LASV entry inh = Lassa virus entry inhibition | Lassa virus pseudotype entry inhibition, cell reporter; control for the full effect not named in the record | Potency, µM (highest dose often 37.9 µM), for inactives: at the highest dose activity change, negative = inhibition, usual class: inhibitors | actives 1.2% (n = 300,000); active means well fitted inhibition curve with a large enough effect; inconclusive means small, poorly fitted or top-dose-only effect, or effect the other way; inactive means flat fitted curve, though single readings scatter; tested in HEK293 cells; note: % is set by controls: 0 for no effect and ±100 for the full control effect; nearly all actives have a fitted effect of over 50% in size; luciferase read-out
RE007 growth inh = less growth of the S. pombe RE007 Vpr strain. S. pombe RE007 Vpr strain, BacTiter-Glo ATP luminescence, 24 h; control for the full effect not named in the record. Potency, µM (titrated, usually from 92.2 µM), inactives show at the top dose activity change, negative = less growth. actives 0.21% (n = 360,000); active = well fitted falling curve with a large enough effect; inconclusive = small, poorly fitted or top-dose-only effect; inactive = no such curve, though single readings can be large or run the other way;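 note: % is set by controls: 0 for no effect and ±100 for the full control effect; nearly all actives have a fitted effect of over 50% in size; the assay follows cell death caused by Vpr and the record does not say whether a fall means rescue or toxicity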
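Fission yeast strain RE007, carrying one chromosomally integrated HIV-1 vpr copy, was seeded at OD 0.01 in PMG+AL medium with 23 nL pinned compound. After 24 h at 30 °C and 99% humidity, viability was read by BacTiter-Glo luminescence.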
Cruzain inh Det = cruzain (T. cruzi) inhibition with detergent | purified cruzain, Z-FR-AMC fluorescence, 0.01% Triton | Potency, µM, for inactives: max response, negative = inhibition, hits mostly inhibitors | actives 0.43% (n = 200,000); active = well fitted curve in the direction sought with a large enough effect; inconclusive = small, poorly fitted or top-dose-only effect, or another doubt; inactive = no such curve, though single readings can be large; an effect the other way counts as inactive or inconclusive;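 note: plate controls were neutral wells for no effect and buffer without enzyme for full effect; nearly all actives have a fitted effect of over 40% in size; top concentration of the series not given in the record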
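Read-out: AMC fluorescence (360 nm excitation, 450 nm emission), four reads over 2 min, first-to-third difference used. Conditions: cruzain 1.5 nM, Z-FR-AMC 2 uM, pH 5.5 acetate, 5 mM DTT, 0.01% Triton X-100.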
MARV entry inh = inhibitors of Marburg virus binding or cell entry; Potency, µM (doses to about 37.8 µM), inactives show top-dose activity change, negative = inhibition, most hits filed as inhibitors; Marburg virus pseudotyped entry inhibition, cell reporter; control for the full effect not named in the record; about a third of the inactives were read at about 46 µM; actives 1.8% (n = 300,000); active = well fitted inhibition curve with a large enough effect; inconclusive = small, poorly fitted or top-dose-only effect, or effect the other way; inactive = flat fitted curve, though single readings scatter; tested in HEK293 cells; about a fifth of its hits are not listed in these tables; note: % is set by controls: 0 for no effect and ±100 for the full control effect; luciferase read-out
SARS PLpro yeast = SARS-CoV PLP inhibition in yeast; S. cerevisiae expressing SARS-CoV PLpro, growth rescue; control for the full effect not named in the record; Potency, µM (highest dose often 32.9 µM), for the others: top-dose activity, positive = growth rescue; actives 0.19% (n = 330,000); note: 0% is about no effect; nearly all actives have a fitted effect of over 55% in size; growth read by luminescence after 48 h
StopGo reporter = lowers the luciferase signal of an FMDV 2A StopGo reporter; Potency, µM (highest dose often 57.9 µM), for the others: at the highest dose signal change, negative = less light; human cells with a luciferase reporter of 2A StopGo recoding; control for the full effect not named in the record; actives 1.2% (n = 410,000); active = well fitted falling curve with a large enough effect; inconclusive = small, poorly fitted or top-dose-only effect; inactive = no such curve, though single readings can be large or run the other way; tested in HEK293T cells; note: % is set by controls: 0 for no effect and ±100 for the full control effect; nearly all actives have a fitted effect of over 45% in size; luciferase light after 4 h
Numbers without * were called inactive; ? = inconclusive; / = no result given; & = joins results of further samples; [ ] = dose if it differs, or a comment. Unless noted, calls come from the whole dose curve; as a rule, active means well fitted rising curve with a large enough effect; inconclusive means small, poorly fitted or top-dose-only effect; inactive means no such curve, though single readings can be large or run the other way. Potency is the fitted concentration of half-maximal effect.

smiles	SARS PLpro yeast	Cruzain inh Det	LASV entry inh	Cruzain inh noDet	MARV entry inh	StopGo reporter	NS1 inh	RE007 growth inh
Cn1c(N)c(S(=O)(=O)NCc2ccc(F)cc2)c(=O)n(C)c1=O	-5%	/	9%	/	7%	-23%	5%	3%
COCCCn1c(=O)c2ccccc2n(CC(=O)N2CCCc3ccccc32)c1=O	2%	/	?	/	-4%[46.1 µM]	15%	7%	14%
O=C(NCC1CCCO1)Nc1cc(Cl)cc(Cl)c1 (stereo not given)	0%	/	/	/	/	39%[activator]	-8%	-9%
COCCn1c(C)cc(C(=O)COc2nc3ccccc3nc2C)c1C	7%	-1.4%	-28%	11%	?	-29%	0%	4%
Cc1cccn2c(=O)c(C(=O)N3CCN(c4ccccc4F)CC3)cnc12	/	-5.9%	-1%[46.1 µM]	14%	/	33%[activator]	/	/
Cc1ccc(S(=O)(=O)N2CCOCC2)cc1C(=O)OCC(=O)NC1CCCCC1	3%	/	?	/	-16%[46.1 µM]	-24%	/	13%
Cn1nc(C(=O)Nc2ccc3c(c2)OCO3)c2ccccc2c1=O	-1%	/	/	/	/	18%	-4%	14%
CCN(CCCNC(=O)c1ccc2c(c1)NC(=O)CN2C)c1cccc(C)c1	-1%	/	/	/	/	?	6%	3%
Brc1ccc(-c2ncc3ccccn23)cc1	-14%	/	/	/	/	27%	-74%	2%
COc1ccc(/C=N/Nc2ncnc3sc4c(c23)CCCC4)cc1OC	18%	-13%	?	?	?	33%[activator]	21%	-23%
CCC(C)(C)c1ccc(OCCCC[n+]2cccc(C)c2C)c(C(C)(C)CC)c1	-6%	/	/	/	/	?	-61%	28µM*
Cc1ccccc1-n1nc(CO)c(C(=O)NCCc2ccccc2)n1	/	-1.7%	4%[46.1 µM]	0%	12%[46.1 µM]	-20%	/	/
CCOC(=O)N1CCc2c(sc3c2c(=O)n(-c2ccc(Cl)cc2)c(=O)n3CC(C)C)C1	/	-1.0%	-15%[46.1 µM]	1%	9%[46.1 µM]	-3%	/	/
COc1cc(OC)cc(C(=O)NC(C)c2ccc(Br)cc2)c1 (stereo not given)	0%	/	-6%[46.1 µM]	/	-2%[46.1 µM]	-13%	4%	11%
COc1ccc(CCN)cc1O	/	-1.8%	/	8%	?	-12%&2%	1%	-3%
O=S(=O)(c1ccc(OC(F)(F)F)cc1)N1CCC(c2nc3ccccc3s2)CC1	/	-0.6%	-12%[46.1 µM]	-12%	6%[46.1 µM]	3%	/	/
CON1C(=O)C(=O)N(OC)C(C)(C)C1(C)C	5%	-1.9%	12%	-3%	?	-14%	2%	-10%
CN(Cc1ccncn1)C(=O)C1CCC(=O)N(Cc2cccc(C(F)(F)F)c2)C1 (stereo not given)	-4%	/	17%	/	-11%	-24%	-9%	15%
CC(=O)NC(CC(=O)N(C)C1CCCCC1)c1ccccc1 (stereo not given)	-1%	/	11%[46.1 µM]	/	2%[46.1 µM]	38%[activator]	7%	-1%
Cc1ccc(S(=O)(=O)N(CC(=O)N2CCOCC2)CC(=O)N2CCOCC2)cc1	22%	2.8%	-7%	6%	8%&8%	-1%	4%	9%
CC1CN(S(=O)(=O)c2ccc(NC(=O)c3ccco3)cc2)CC(C)O1 (stereo not given)	6%	1.7%	?	-4%	-9%	-3%	-8%	-10%
Cc1cccc(-c2nnn3c2nc(NCc2ccc4c(c2)OCO4)c2ccccc23)c1	/	0.2%	15%[46.1 µM]	-3%	16%[46.1 µM]	0%	/	/
Cn1c(=O)c2c(nc(NCc3ccc4c(c3)OCO4)n2Cc2ccccc2)n(C)c1=O	-1%	-3.8%	?	3%	4%&4%[46.1 µM]	?	2%	-8%
CCOC(=O)C1CCCN(CC(=O)Nc2c(F)c(F)c(F)c(F)c2F)C1 (stereo not given)	?	2.3%	17%	-4%	4%	5%	-15%	-16%
Cc1cccc(COc2ccccc2C(=O)OCC(=O)N(C)c2c(N)n(Cc3ccccc3)c(=O)[nH]c2=O)c1	-5%	/	?	/	-3%	2%	-8%	5%
O=C(N/C(=C\c1ccc(Br)cc1)C(=O)N1CCOCC1)c1ccc([N+](=O)[O-])cc1	0%	/	3%	/	-4%[46.1 µM]	75%[activator]	-3%	6%
COc1cc(OC)cc(OC(=O)c2ccc3c(=O)n4c(nc3c2)CCC4)c1	-3%	/	-1%	/	0%[46.1 µM]	12%	/	10%
Cc1ccc(S(=O)(=O)CCSc2nccn2C)cc1	1%	/	9%[46.1 µM]	/	28%[46.1 µM]	22%	-1%	5%
O=C(NC1CC1)C(=O)c1c[nH]c2ccccc12	0%	/	/	/	/	47%[activator]	-6%	4%
Cc1ccsc1/C=N/NC(=O)c1nnn(-c2nonc2N)c1-c1ccccc1	-1%	/	-7%[46.1 µM]	/	-1%[46.1 µM]	-4%	1%	2%
O=C(Nc1ncc(S(=O)(=O)c2ccc([N+](=O)[O-])cc2)s1)c1cccnc1	-4%	/	?	/	/	-29%	5%	16%
Cc1ccccc1NC(=O)C1CCC(=O)N1 (stereo not given)	7%	/	3%[46.1 µM]	/	5%[46.1 µM]	-5%	-1%	0%
COc1ccc(C2CC(C(F)(F)F)n3ncc(C(=O)NCC4CCCO4)c3N2)cc1OC (stereo not given)	2%	-1.0%	-9%	19%	0%	3%	4%	8%
Cc1nn(Cc2ccccc2)c(C)c1/C=N/NC(=O)c1ccccc1O	-2%	/	/	/	/	8%	-11%	0%
Cc1onc(-c2ccccc2)c1C(=O)c1c[nH]c(C(=O)NCCCN2CCOCC2)c1	1%	/	19%	/	?	-19%	/	0%
Cc1ccccc1N1CCN(S(=O)(=O)c2nnc(NC(=O)c3ccc(C(C)C)cc3)s2)CC1	/	-1.0%	-17%[46.1 µM]	3%	/	?	/	/
Cc1ccc(NC(=O)Cc2ncon2)cc1Cl	-1%	/	-2%[46.1 µM]	/	7%[46.1 µM]	10%	-6%	7%
COc1cccc(C(=O)NCCc2sc(-c3cccc(C)c3)nc2C)c1	/	-7.5%	-14%[46.1 µM]	6%	/	5%	/	/
Cc1c(N=Nc2c(O)n(C)c(=O)n(C)c2=O)c(=O)n(-c2ccccc2)n1C	-5%	-8.3%	0%	15%	8%	?	2%	15%
Cc1cc(C)c(NC(=S)NC(=O)c2c(Cl)c(C)nn2C)c([N+](=O)[O-])c1	8%	-7.7%	?	4%	-18%	-5%	-8%	-11%
Cc1ccc(NC(=O)CN2CCC(NC(=O)c3ccccc3F)CC2)cc1C	-2%	/	/	/	/	-4%	-20%	5%
COc1ccc(CC(=O)Nc2sc3c(c2C#N)CC(C)(C)NC3(C)C)cc1OC	-1%	/	/	/	/	?	-6%	2%
COc1cc(OC)cc(C(=O)NCC(=O)OC(C)C(=O)NC(C)C2CC3CCC2C3)c1 (stereo not given)	6%	/	?	/	-9%	-17%	/	-6%
O=C(COC(=O)c1ccco1)NCc1ccc(Cl)cc1Cl	-3%	/	1%	/	0%	48%[activator]	/	-2%
CCCCn1c(CCCNC(=O)CC)nc2ccccc21	4%	-2.1%	/	-4%	/	0%	-11%	1%
CC(=O)CCc1c(C)nc2ccc(C)cc2c1Cl	-2%	/	-5%	/	9%[46.1 µM]	23%	/	-9%
COC(=O)c1ccc(CN2CCCC(CNC(=O)Cc3ccc(OC)cc3)C2)cc1 (stereo not given)	-3%	/	/	/	/	-13%	13%	-11%
Cc1cc(C(=O)N/N=C/c2c[nH]c3ccccc23)c(C)o1	14%	-7.9%	23%	-14%	?	72%[activator]	-10%	-5%
CCOC(=O)/C(C#N)=C/c1ccc(-c2ccc(Br)cc2)o1	/	-7.5%	-15%[46.1 µM]	-22%	/	8%	/	/
CC(C)Cn1c(N)c(C(=O)CSc2ncccn2)c(=O)n(C)c1=O	-2%	/	14%[46.1 µM]	/	-21%	-17%	/	-16%
COc1cccc(C(=O)Nc2sc(C(C)C)cc2C(N)=O)c1OC	-4%	/	/	/	/	-10%	-152%	1%
CCSc1nnc(-c2ccncc2)n1Cc1ccccc1	-5%	6.7%	3%	3%	23%	0%	0%	-19%
Cc1nc2ccccc2c(=O)n1-c1cc([N+](=O)[O-])cc([N+](=O)[O-])c1	2%	/	/	/	/	-12%	1%	13%
Cc1ccc(CNC(=O)c2sc3nc4c(c(C(F)(F)F)c3c2N)CCC4)cc1	6%	-8.1%	0%	-1%	-2%	-8%	5%	13%
N=C1C(c2ccccc2)=C(O)CN1c1cccc2ccccc12	3%	/	-31%	/	-12%[46.1 µM]	-4%	/	3%
C/C(=N/O)c1ccc(Oc2cnccn2)cc1	1%	/	9%	/	?	12%	/	-5%
COc1ccc(Cn2c(=O)c3c(nc(NCCO)n3C)n(C)c2=O)cc1	5%	0.9%	16%	5%	24%	-17%	-2%	0%
NS(=O)(=O)c1ccc(Cl)c(C(=O)Nc2ccccc2[N+](=O)[O-])c1	0%	/	-5%	/	-3%[46.1 µM]	-8%	-4%	-9%
O=C1CN(c2nc3nonc3nc2N2CCCCC2)CCN1	1%	/	28%[46.1 µM]	/	11%[46.1 µM]	-5%	5%	2%
S=c1[nH]nc(COc2ccc3ccccc3c2)o1	-23%	-3.6%	2%	-14%	?	8%	-16%	0%
COc1ccc(S(=O)(=O)N2CCOCC2)cc1C(=O)Nc1ccc2c(c1)OCO2	-3%	/	-18%	/	-2%	-3%	16%	1%

Screening results from PubChem.

Compounds as they come; 4.7% or so of the library scored in one or more.
